High-throughput results (PubChem)
NPR1 antag: Natriuretic polypeptide receptor (hNpr1) antagonism - Primary qHTS. Potency, µM (doses to about 46.3 µM), for inactives: at the highest dose activity change, negative = inhibition, actives largely listed as inhibitors. 76,000 tested, 1.6% active. Atrial natriuretic peptide receptor 1 (Homo sapiens), P16066. HEK293 hNpr1 GloSensor cGMP, ANP-stimulated luminescence. AID 1347048, 2019; active = well fitted inhibition curve with a large enough effect; inconclusive = small, poorly fitted or top-dose-only effect; inactive = no such curve, though single readings can be large or run the other way;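 also: nearly all actives have a fitted effect of over 60% in size; nearly all hits also lower the signal before the agonist is added; a reference antagonist and vehicle were the controls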
Target sequence (P16066 whole entry, looked up): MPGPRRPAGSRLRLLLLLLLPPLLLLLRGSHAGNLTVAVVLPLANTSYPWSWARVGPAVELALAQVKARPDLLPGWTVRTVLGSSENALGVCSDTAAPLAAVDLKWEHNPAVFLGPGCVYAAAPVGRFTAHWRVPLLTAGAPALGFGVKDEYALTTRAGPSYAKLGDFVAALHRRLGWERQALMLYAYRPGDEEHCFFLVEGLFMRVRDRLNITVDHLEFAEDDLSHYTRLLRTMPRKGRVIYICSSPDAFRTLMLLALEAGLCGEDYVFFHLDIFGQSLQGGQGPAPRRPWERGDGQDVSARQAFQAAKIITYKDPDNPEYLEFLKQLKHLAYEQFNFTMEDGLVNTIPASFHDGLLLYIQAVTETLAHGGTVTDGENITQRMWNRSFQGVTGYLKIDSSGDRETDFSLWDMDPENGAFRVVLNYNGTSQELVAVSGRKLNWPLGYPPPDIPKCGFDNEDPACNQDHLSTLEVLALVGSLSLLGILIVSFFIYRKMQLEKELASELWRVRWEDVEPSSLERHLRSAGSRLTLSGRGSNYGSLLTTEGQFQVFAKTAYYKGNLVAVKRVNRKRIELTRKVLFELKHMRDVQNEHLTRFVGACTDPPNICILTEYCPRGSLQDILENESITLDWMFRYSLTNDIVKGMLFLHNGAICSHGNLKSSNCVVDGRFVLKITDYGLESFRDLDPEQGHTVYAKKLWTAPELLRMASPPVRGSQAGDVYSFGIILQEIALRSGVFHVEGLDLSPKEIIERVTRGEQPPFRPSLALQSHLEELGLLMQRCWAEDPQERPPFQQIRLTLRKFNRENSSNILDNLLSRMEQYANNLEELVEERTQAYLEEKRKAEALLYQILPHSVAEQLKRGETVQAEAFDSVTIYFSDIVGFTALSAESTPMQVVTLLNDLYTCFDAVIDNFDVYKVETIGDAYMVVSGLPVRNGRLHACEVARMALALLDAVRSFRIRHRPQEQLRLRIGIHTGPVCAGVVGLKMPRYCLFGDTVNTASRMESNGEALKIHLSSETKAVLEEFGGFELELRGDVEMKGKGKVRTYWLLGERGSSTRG
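Compound pre-incubated 30 min at room temperature on GloSensor-loaded HEK293 cells stably carrying hNpr1 and the pGS-40F cGMP biosensor. Stimulation uses hNppA at 0.1 nM final; luminescence is taken at baseline and 20 min post-agonist.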
* marks the source's active call; other numbers are inactive results; ? = inconclusive; [ ] = remark or other dose. % is scaled to controls: 0 for no effect and ±100 for the full control effect; potency is read from the fitted curve at half-maximal effect. These rows are one share of the data; the hit share may differ from the screen's.

SMILES	NPR1 antag
Cc1ccc(CC(=O)N2CCC(Cc3nc(C(C)C)no3)CC2)cc1	?
COCCn1cnnc1C(C)NC(=O)CCc1nc2ccccc2[nH]c1=O (stereo not drawn)	3%
Cc1ccc(-c2ccc3nnc(CNC(=O)c4cc(F)ccc4F)n3n2)cc1	5%
O=C(O)C1CCc2sc(C(=O)N3CCCCCC3)cc2C1 (stereo not drawn)	5%
Cc1ccc2c(c1)nc1n2[C@@H](CNS(C)(=O)=O)COC1	0%[70.6 µM]
O=C(c1cc2ccccc2[nH]1)N1CCc2c(n(Cc3cccnc3)n(-c3ccccc3)c2=O)C1	-11%
CNC(=O)N1CCCC1c1nc(C2CN(C(=O)Cc3cccc(F)c3)C2)no1 (stereo not drawn)	-1%
COCCC(=O)N1CCC2(CC1)CC(N(Cc1ccccc1)C1CC1)CCO2 (stereo not drawn)	9%
COc1cc(=O)n2c(c1C(=O)N1CCN(c3ccc(C)cc3C)CC1)CCCC2	1%
CC(C)Oc1cccc(-c2cccc(COc3ccc4c(cnn4CC[S+](C)(=O)[O-])c3)c2)c1	?
COc1ccc(-c2nc3cc(C)ccc3cc2CN2CCC[C@@H]2C(N)=O)cc1OC	3%
COc1cccc(-c2cc(C(=O)N3CCc4c(c(-c5nncn5C)nn4C)C3)[nH]n2)c1	3%
Cc1cc(C(F)(F)F)nn1CCNC(=O)C1COc2ccccc2C1 (stereo not drawn)	-10%
CN(C)c1cccc(C(=O)NCCC2CCN(C(=O)Nc3cc(F)cc(F)c3)CC2)c1	-9%
CC1(C)[C@H](Cc2cc(CCO)on2)C[C@@H]1NCc1ccncc1	-28%[70.6 µM]
COc1ccc([C@H]2C[C@@H](O)[C@@H](O)[C@@H]2NC(=O)COc2ccccc2)cc1	4%[70.6 µM]
O=S1(=O)CCC(S(=O)(=O)N2CCOCC2)C1 (stereo not drawn)	10%
CN(C)Cc1cc(CC2(NCc3ccc(C#N)cc3)COC2)no1	0%[70.6 µM]
COc1cc(-c2ccnc(-c3nnc(C)n3C3CCCCC3)c2)ccn1	-2%[70.6 µM]
COc1cc(O)ccc1CN1CCCC(COc2ccccc2C(=O)N2CCOCC2)C1 (stereo not drawn)	-10%
O=C([C@H]1C[C@H](Oc2ccccc2)CN1C(=O)c1ccc(F)cc1)N1CCOCC1	-12%
COc1cccc(-c2ccnc(-c3nnc(C)n3Cc3ccccc3)c2)c1	-2%[70.6 µM]
O=C(CCc1nc2ccccc2s1)N1CCC(c2noc(-c3cnccn3)n2)C1 (stereo not drawn)	3%
COc1cc(F)ccc1-c1cc(C(=O)NCc2c(C)cc(C)[nH]c2=O)c2c(c1)N(C(C)C)CCO2	0%
CCN(CC)C(=O)N1C[C@H](NC(=O)c2cn(C)c(=O)[nH]c2=O)[C@@H](C2CC2)C1	-1%

(continued)
SMILES	NPR1 antag
c1ccc(OCc2cc(CC3(NCc4ccc5c(c4)OCO5)COC3)no2)cc1	4%[70.6 µM]
COc1cccc(S(=O)(=O)N2CCC(n3cnnc3C3CC3)CC2)c1	-24%
CC(=O)N(C1CC1)C1CCOC2(CCN(C(=O)c3ccc4nc[nH]c4c3)CC2)C1 (stereo not drawn)	-2%
O=C1c2c(-c3nc(-c4ccsc4)no3)nnn2CCN1Cc1ccc(F)cc1	0%
CC(=O)N1CCC(C(=O)N2CCC3(CC2)NC(=O)N(c2cccc(Cl)c2)N3)CC1	2%
CCC(C)NC(=O)CC1Sc2ncccc2N(CC(C)C)C1=O (stereo not drawn)	0%
O=C(CN1C(=O)NC2(CCOCC2)C1=O)Nc1cc(F)ccc1F	11%
NC1(C(=O)N2CCCC(N3CCN(c4cccc(Cl)c4)CC3)C2)CC1 (stereo not drawn)	7%
COCCNC(=O)[C@@H]1C[C@@H](O)CN1C1CCN(C(=O)c2cccc(OC)c2)CC1	-1%
Cc1cnc(CCNC(=O)c2ccnn2C)n1C1CC1	2%
COC1CCOC2(CCN(C(=O)NCc3ccc(C)cc3)CC2)C1 (stereo not drawn)	2%
O=C(NCc1nnc2ccccn12)[C@H]1CNC[C@H](C(=O)N2CCOCC2)C1	7%
O=c1cc(-c2cccnc2)oc2c(-c3ccccc3O)nccc12	2%[70.6 µM]
CC(C)C(=O)N[C@H]1C[C@@H](Cc2cc(COc3ccccc3)on2)C1(C)C	?
O=C1N[C@H](CC(=O)N2CCN(c3ccc(F)cc3)CC2)C(=O)Nc2ccccc21	-5%
O=C1CCN(Cc2ccc3c(c2)CCO3)CCCCCCN1	1%
Cc1ccccc1C(=O)N[C@@H]1CN(c2ncccn2)C[C@H]1CO	-2%
Cn1nccc1C(=O)N1CC(=O)N(C2CCCCC2)CC(OCc2ccccc2)C1 (stereo not drawn)	-1%
O=c1[nH]c(N2CCOCC2)nc2c1CCN(Cc1ccc(C(F)(F)F)cc1)CC2	10%
CCN1CCC(CC(=O)N2CCC(C3CCN(C(=O)NC)CC3)C2)CC1 (stereo not drawn)	10%
Cc1ccc(NC(=O)N2CCc3c(C(=O)NC(C)c4cccnc4)cccc32)cc1 (stereo not drawn)	4.5µM*
Cc1cc(C(=O)NCC2Cn3cccc3C(=O)N2CC(C)C)n(C)n1 (stereo not drawn)	-1%
Cc1nn(C)c(C)c1S(=O)(=O)NC1CCc2nnc(C3CC3)n2CC1 (stereo not drawn)	-3%
C=CCOC(=O)C1=C(C)N=C2SC=C(CC(=O)N3CCCC3)N2C1c1ccccc1Cl (stereo not drawn)	13µM*
COc1ccc(C(=O)N2CCCC(n3cc(-c4nc(C)no4)nn3)C2)cc1 (stereo not drawn)	-1%

Following part.
SMILES	NPR1 antag
Cc1ccn(CC(=O)N[C@@H]2CN(c3ccncn3)C[C@H]2CN(C)C)n1	5%
CCN1c2cc(C(=O)NCc3ccc(F)cc3Cl)ccc2C(=O)N2CCCCCC21 (stereo not drawn)	-3%
Cc1cc(C(=O)N2CCC3(CCNCC3)CC2)c2cccc(C)c2n1	-1%
CCC(CC)C(=O)NC1CCN(C(=O)N2CC3CC(C2)[C@H]2CCCC(=O)N2C3)CC1 (stereo partly drawn)	4%
CCS(=O)(=O)N1C[C@@H]2C(=O)N(CCC3CCN(C(C)C)CC3)C(=O)[C@@H]2C1	1%
CC(Oc1ccc(Cl)cc1)C(=O)NCc1nnc2ccc(-c3ccccc3)nn12 (stereo not drawn)	2%
Cc1ccc(S(=O)(=O)Nc2ccc(C)n(CC(=O)O)c2=O)cc1	1%
O=C(Nc1ccc2c(N3CCOCC3)ncnc2c1)c1ccco1	2%
COc1ccc(C2Cn3nnc(C(=O)N4CCC(C(=O)NCc5cccc(C)c5)CC4)c3CO2)cc1 (stereo not drawn)	-3%
Cc1ccc(=O)n(CC(=O)N[C@H]2CN(S(C)(=O)=O)C[C@@H]2C(C)C)n1	5%
COc1cccc2c1OCC(C(=O)NCCc1ccc(N(C)C)cc1)C2 (stereo not drawn)	-8%
O=C(CC1CCN(C(=O)Cc2ccccc2F)C1)NC1CC1 (stereo not drawn)	-1%
CCCn1c(C)cnc1CCNC(=O)c1ccc(OC)nc1	2%
Cc1ccc(NC(=O)C2CCCCC(=O)N2)cc1 (stereo not drawn)	0%
COc1ccc(NC(=O)N[C@@H]2C=C[C@@H](c3c(C)nn(CCC#N)c3C)C2)cc1	-13%[70.6 µM]
CN(C)CC1(O)CCCN(c2ncccc2C(N)=O)CC1 (stereo not drawn)	6%
O=C1NC[C@@H](CCC(=O)N2CCCC2)N2C[C@@H](NCc3ccccc3)C[C@@H]12	2%[70.6 µM]
CN(C)c1ccc(-c2noc([C@@H]3CCCN3Cc3ccc(CO)o3)n2)cn1	1%[70.6 µM]
O=C(NCCc1ccccc1)c1ccc(CN2C(=O)NC3(CCOCC3)C2=O)cc1	0%
Cc1cc(C)c2[nH]c(C(=O)N3CCN(Cc4ccccc4)C(=O)C3C)c(C)c2c1 (stereo not drawn)	5%
COc1ccc(NC(=O)N2CCc3nc4cc[nH]n4c(=O)c3C2)cc1	-1%
COc1cccc(-c2ncc3c(n2)OCCN(c2cccc(C(F)(F)F)c2)C3=O)c1	-24%[70.6 µM]
CCS(=O)(=O)N1CCC2(CC1)CC(C(=O)N1CCOCC1)N(C)C2 (stereo not drawn)	0%
CN(CC(O)c1ccccc1)C(=O)c1cn(C(c2ccccc2)c2ccccc2)nn1 (stereo not drawn)	4%
CCCN(CC1CCOC1)C(=O)Nc1cc(F)cc(F)c1 (stereo not drawn)	-2%

Next section.
SMILES	NPR1 antag
COCCCNC(=O)CC(c1ccc(Cl)cc1)c1c[nH]c2ccccc12 (stereo not drawn)	-19%
Cc1nc2scc(CC(=O)NCCC(C)C)n2c(=O)c1-c1cc(C)n(-c2ccccc2F)n1	3%
COc1ccc(-c2noc(Nc3ccc(OC)cc3OC)n2)cc1	-2%
C=CCNC(=O)c1ccn2cncc2c1	13%[70.6 µM]
Clc1ccccc1CNC[C@H]1Cn2cc(-c3ccccc3)nc2CO1	-17%[70.6 µM]
Cc1nc(N2CCC(NC(=O)c3ccco3)CC2)cc(C(F)(F)F)n1	2%
COc1ccc(-c2nc3cc(C)ccc3cc2CN2CCCC(CO)C2)cc1OC (stereo not drawn)	10%
Cc1nc(C(=O)N2CCC3(CCC(=O)N(CCc4cnc[nH]4)C3)CC2)cs1	2%
Cc1cn2nc(C(=O)NCc3ccc(F)cc3)cc2c(N(C)Cc2ccccc2)n1	0%
O=c1[nH]c(N2CCOCC2)nc2c1CCN(Cc1cccc(Cl)c1)CC2	2%
COc1ccc(NC(=O)Cn2c(=O)n(-c3cccc(C)c3)c(=O)c3c2cc(C)n3C)cc1	-3%
COCCNC(=O)[C@H]1C[C@H](Oc2ccccc2)CN1S(=O)(=O)Cc1ccccc1F	2%
COc1ccccc1NC(=O)Cn1c(=O)n(-c2ccccc2)c(=O)c2c1cc(C)n2C	0%
COC[C@]1(O)CCN(S(=O)(=O)c2cccc(C(=O)O)c2)CC1(C)C	0%
O=C(c1n[nH]c2c1CCCC2)N1CCc2c(nc3cc[nH]n3c2=O)C1	-1%
COc1ccccc1OCCNC(=O)[C@H]1CCC[C@H]1NC(=O)c1ccncc1	-6%
COC1CCC12CCN(C(=O)CC1CCN(C(C)=O)CC1)CC2 (stereo not drawn)	2%
CCc1nc(-c2c3n(c(=O)n(CC(=O)Nc4c(C)cccc4C)c2=O)CCCC3)no1	0%
CN(CCc1nc2c([nH]1)CC(C)(C)CNC2=O)c1ccccc1	3%
CSCC[C@@H]1NC(=O)c2cc(NC(=O)c3cc(-c4ccccn4)n[nH]3)ccc2NC1=O	-6%
COc1cccc(Nc2csc(CN3CCCC(C)(NC(C)=O)C3)c2)c1 (stereo not drawn)	-5%[70.6 µM]
COc1ccc(CN2CCC3(C2)C(=O)N(Cc2ccccc2)c2ccccc23)cc1 (stereo not drawn)	?
COc1ccc(CNC(=O)NCC23CCCC=C2NC(=O)CC3)cc1 (stereo not drawn)	1%
Cc1ccc2nc(CO[C@H]3CN(Cc4ccc(Cl)cc4)C[C@H]3F)[nH]c2c1	?
C#CCNC(=O)c1c(-c2ccc(F)cc2)noc1[C@H](C)O	-4%[70.6 µM]

4 neighbouring compounds out of the list so far, for reference:
SMILES	NPR1 antag
COCCCNC(=O)CC(c1ccc(Cl)cc1)c1c[nH]c2ccccc12 (stereo not drawn)	-19%
Cc1nc2scc(CC(=O)NCCC(C)C)n2c(=O)c1-c1cc(C)n(-c2ccccc2F)n1	3%
COc1ccc(-c2noc(Nc3ccc(OC)cc3OC)n2)cc1	-2%
C=CCNC(=O)c1ccn2cncc2c1	13%[70.6 µM]

Further entries follow:
SMILES	NPR1 antag
COc1ccc(NC(=O)Cn2c(-c3ccc(F)cc3)nc(C)cc2=O)c(OC)c1	3%
OC1(c2csc(CN3CCOCC3)n2)CCN(Cc2ccc(C(F)(F)F)cc2)CC1	?
COc1ccc(C(=O)N2CCc3nc(C)nc(-c4ccc(OC)cc4)c3CC2)cc1	0%
O=C1NC2(CCN(Cc3ccccc3)C2)Oc2ccccc21 (stereo not drawn)	0%[70.6 µM]
Cc1cc(C(=O)NC(C)c2cnc(N3CCCCCCC3)nc2C)n[nH]1 (stereo not drawn)	10µM*
COc1ccc2nc(CO[C@H]3CN(C4CCN(C(C)=O)CC4)C[C@H]3F)[nH]c2c1	6%[70.6 µM]
Cc1ccc(CN2CCOCCNC(=O)CC2)o1	-2%
COc1ccc(CNC(=O)N2CC(N(C3CCOCC3)S(C)(=O)=O)C2)cc1	-8%

3 of the entries above in order of their number in NPR1 antag, rising.
SMILES	NPR1 antag
Cc1ccc(NC(=O)N2CCc3c(C(=O)NC(C)c4cccnc4)cccc32)cc1 (stereo not drawn)	4.5µM*
Cc1cc(C(=O)NC(C)c2cnc(N3CCCCCCC3)nc2C)n[nH]1 (stereo not drawn)	10µM*
C=CCOC(=O)C1=C(C)N=C2SC=C(CC(=O)N3CCCC3)N2C1c1ccccc1Cl (stereo not drawn)	13µM*

Arranged by length of the SMILES (high to low): some entries from above
SMILES	NPR1 antag
COc1ccc2nc(CO[C@H]3CN(C4CCN(C(C)=O)CC4)C[C@H]3F)[nH]c2c1	6%[70.6 µM]
COc1ccc(NC(=O)Cn2c(-c3ccc(F)cc3)nc(C)cc2=O)c(OC)c1	3%
COc1ccc(CNC(=O)N2CC(N(C3CCOCC3)S(C)(=O)=O)C2)cc1	-8%
Cc1cc(C(=O)NC(C)c2cnc(N3CCCCCCC3)nc2C)n[nH]1 (stereo not drawn)	10µM*
Cc1ccc(CN2CCOCCNC(=O)CC2)o1	-2%
